Menin-MLL FL inh – menin-MLL binding inhibition, fluorescein peptide | Fluorescence polarization, fluorescein-MLL peptide displacement from menin | FP activity change, % at 61.4 µM | 290,000 tested, under 10 active | AID 1766; inconclusive = falling polarisation curve, or a change in total fluorescence; inactive = total fluorescence flat and polarisation flat or rising; no compound was filed as active; the % refers to the polarisation; negative = inhibition;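 further: % of control where 0% means no effect; inhibitors lower the polarisation; unlabelled MLL peptide was the positive control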
Sfp inh – blocks B. subtilis Sfp PPTase activity; Q9F4F7; Potency, µM, without a hit: max response, negative = inhibition, actives largely listed as inhibitors; Biochemical Sfp PPTase activity, qHTS; AID 1490; 3.5% of 310,000 active; active means well fitted inhibition curve with a large enough effect; inconclusive means small, poorly fitted or top-dose-only effect, or another doubt; inactive means no such curve, though single readings can be large or run the other way;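 further: the enzyme is Sfp with the accession as filed and its product quenches rhodamine fluorescence; potency means the concentration at half of the fitted maximal effect; 0% = enzyme reaction without inhibitor and -100% = no enzyme wells; top concentration of the series not given in the record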
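After 15 min at room temperature with compound, 15 nM Sfp received 5 uM rhodamine-CoA plus 12.5 uM BHQ-2-ybbR (50 mM Hepes pH 7.6, 10 mM MgCl2). Rate came from the fluorescence difference over 30 min, ex 525/em 598 nm.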
The depositor's hits bear a star; ? = inconclusive; & = joins results of further samples; [ ] = dose if it differs, or a comment.

Menin-MLL FL inh | Sfp inh | SMILES
-0.4[24.8 µM] | 28% | c1ccc2c(c1)CCC[C@@H]2C1=NCCN1
-6.0 | 13% | CCOC(=O)c1c(C)cc(O)c(C)c1O
1.6 | 8% | NC(=O)C1CC2(NC(=O)NC2=O)c2cc(F)ccc2O1 (stereo unspecified)
5.6 | -3% | CC(C)(Cc1c[nH]c2ccccc12)NCC(O)COc1ccccc1C#N (stereo unspecified)
6.9 | 6% | COc1ccc(Oc2ncc3nc(-c4cccs4)c(=O)n(Cc4cccc(OC)c4)c3n2)cc1
-1.6 | 13% | COc1ccc(NC(=O)N2CCCC3(CCN(C(=O)c4csnn4)CC3)C2)cc1
3.1 | 19% | CCN1CCCC1Cn1c(-c2ccccc2)nc2c(N(CCOC)CCOC)nc(C)nc21 (stereo unspecified)
1.4 | -7% | CC(C)CCC[C@@H](C)[C@H]1CC[C@H]2[C@@H]3CC[C@@H]4C[C@H](O)CC[C@]4(C)[C@H]3CC[C@]12C
? | ? | CCCCCCCCCCCCCCCC(=O)O[C@H](CC(=O)O)C[N+](C)(C)C
-3.1[11.7 µM] | 12% | CCOC(=O)CCCNC(=O)N1CCc2nc(-c3ccccc3)c3c(c2C1)CO[C@@H](C)C3
-2.1[11.7 µM] | 12% | CCOC(=O)[C@]1(C(NC(=O)OC)c2cccc(F)c2)CCCC1=O (stereo partly specified)
-1.5 | 5% | CN(C)Cc1ccccc1-c1nccc(N(C)C)n1
5.0 | 14%&-11% | CCCCC[C@H](O)/C=C/[C@@H]1[C@H](C/C=C\CCCC(=O)O)[C@@H](O)C[C@H]1O
0.9 | -11% | COc1ccccc1CNc1nc(-c2ccc(C(=O)N(C)C)cc2)nc2ccccc12
-1.0 | 16% | O=C(c1csnn1)N1CCC2(CCCN(c3ncccn3)C2)CC1
-1.1 | 12% | COc1ccc(C2C=C3CNS(=O)(=O)C3CC2OC(=O)c2ccc(Cl)cc2)cc1 (stereo unspecified)
-1.3 | 2% | CS(=O)(=O)N1CCC2(CC1)CN(c1ccccn1)C2
-0.8 | -11% | CN(C)Cc1ccccc1-c1nc(N(C)Cc2ccco2)c2ccccc2n1
6.7 | 4%&-16% | CCCCCCCCC#CCC#CCC#CCCCC(=O)O
-4.7 | 19% | COc1ccc(CNc2ncnc3ccc(-c4cccc(C#N)c4)cc23)c(OC)c1
0.9 | 17% | C[C@@H](C(=O)Nc1ccc2ccccc2c1)[C@H]1C[C@]1(C)[C@H](NC(=O)Oc1ccc(F)cc1)c1ccccc1
1.6 | 40µM* | CC(C)(COP(=O)(O)OP(=O)(O)OC[C@H]1O[C@@H](n2cnc3c(N)ncnc32)[C@H](O)[C@@H]1OP(=O)(O)O)C(O)C(=O)NCCC(=O)NCCS (stereo partly specified)
3.0 | 0% | CCOC(=O)CNc1oc(-c2ccccc2)nc1-c1ccccc1
2.4&5.0&2.0 | 22%&-65%&-7% | COc1ccc2c(c1)c(CC(=O)N1CCOCC1)c(C)n2C(=O)c1ccc(Cl)cc1
5.6 | -7% | N#Cc1cccc(-c2nc(NCc3cccnc3)c3ccccc3n2)c1
-7.0 | -88% | CCCCCCCCCCCCC[N+](C)(C)Cc1ccccc1
? | 2% | C=C[C@H](N)CCC(=O)O
-1.5 | 8% | CC(=O)O[C@](C)(CCC=C(C)C)C1CC=C(C)CC1 (stereo partly specified)
1.4 | -1% | C=C(C)CC(C)(C)C
2.6[11.7 µM] | 10% | CC1CCC(C(=O)O)NC1c1ccc(-c2ccco2)cc1 (stereo unspecified)
0.4 | -22% | CC(=O)O[C@@]1(C(C)=O)CCC2C3CC(C)C4=CC(=O)CC[C@@]4(C)C3CC[C@]21C (stereo partly specified)
-0.4 | 9% | C=C1CCC(OC(C)=O)/C(C)=C/CC2[C@H]1CC2(C)C (stereo partly specified)

Some of these compounds in order of their number in Menin-MLL FL inh, lowest first.
SMILES,Menin-MLL FL inh,Sfp inh
CCCCCCCCCCCCC[N+](C)(C)Cc1ccccc1,-7.0,-88%
CC(=O)O[C@](C)(CCC=C(C)C)C1CC=C(C)CC1 (stereo partly specified),-1.5,8%
CC(=O)O[C@@]1(C(C)=O)CCC2C3CC(C)C4=CC(=O)CC[C@@]4(C)C3CC[C@]21C (stereo partly specified),0.4,-22%
N#Cc1cccc(-c2nc(NCc3cccnc3)c3ccccc3n2)c1,5.6,-7%

(cont.)
Menin-MLL FL inh | Sfp inh | SMILES
3.1&0.5 | 4%&-2% | CCCCCCCCCCCCOCCOCCOCCOCCO
2.0 | 23% | O=C(/C=C/c1ccccc1)NC(NC(=S)Nc1cccc2cccnc12)C(Cl)(Cl)Cl (stereo unspecified)
-0.6 | ? | COc1ccc(-c2ccc(C3C4C=CCC(C)C4C(=O)N3Cc3ccccc3)c(F)c2)cc1OC (stereo unspecified)
0.0[11.7 µM] | -8% | COc1ccc(COC(=O)N/N=C2/C[C@@H](O)[C@@H](O)[C@@H]3[C@@H]4C(=O)N(Cc5ccccc5)C(=O)[C@H]4CC[C@@H]23)cc1
-27[11.7 µM] | -6% | CCOC(=O)CCN1C(=O)[C@@H]2[C@H]3C(=CC[C@H]2C1=O)C(=O)[C@H]1O[C@H]1[C@H]3O
1.3[11.7 µM] | 9% | CC[C@@H](c1ccccc1)n1c(=O)n2n(c1=O)[C@H]1[C@H](O)[C@H]3O[C@H]3C(=O)[C@H]1CC2
-6.9 | 27% | CCN(CC)CCCn1c(-c2ccccc2)nc2c(NCCOC)nc(C)nc21
3.2 | 1% | CN(C)CCCN1c2ccccc2C(C)(C)c2ccccc21

Record cards, as listed above.
Profile of CCN(CC)CCCn1c(-c2ccccc2)nc2c(NCCOC)nc(C)nc21 = Menin-MLL FL inh = -6.9; Sfp inh = 27%
Profile of CCOC(=O)CCN1C(=O)[C@@H]2[C@H]3C(=CC[C@H]2C1=O)C(=O)[C@H]1O[C@H]1[C@H]3O = Menin-MLL FL inh = -27[11.7 µM]; Sfp inh = -6%

Some of these compounds in order of SMILES length, descending.
Menin-MLL FL inh | Sfp inh | SMILES
1.3[11.7 µM] | 9% | CC[C@@H](c1ccccc1)n1c(=O)n2n(c1=O)[C@H]1[C@H](O)[C@H]3O[C@H]3C(=O)[C@H]1CC2
2.0 | 23% | O=C(/C=C/c1ccccc1)NC(NC(=S)Nc1cccc2cccnc12)C(Cl)(Cl)Cl (stereo unspecified)
-6.9 | 27% | CCN(CC)CCCn1c(-c2ccccc2)nc2c(NCCOC)nc(C)nc21

Additional structures:
Menin-MLL FL inh | Sfp inh | SMILES
4.9 | -37% | COc1ccc(/C=C/C(=O)c2ccc(O)cc2O)cc1OC
1.2 | 21% | COc1ccc(S(=O)(=O)NCCCC(=O)Nc2ccc(Sc3ccc(N)cc3)cc2)cc1
-3.5 | 15% | COc1ccc(-c2nc3cnc(N4CCNCC4)nc3n(-c3ccc(OC)cc3)c2=O)cc1
1.6 | 37% | C[C@]12CCC3c4ccc(O)cc4CCC3C1CCC2OC(=O)CCC1CCCC1 (stereo partly specified)
1.7 | 2% | CC(=O)Oc1ccc2c(c1)CCC1C2CC[C@@]2(C)C1CC(OC(C)=O)C2OC(C)=O (stereo partly specified)
-1.1 | 0% | COc1ccccc1CNc1ccnc(-c2cccc(NS(C)(=O)=O)c2)n1
8.5 | 10% | CCCC[C@@H]1C[C@H]1C(NC(=O)c1ccco1)c1ccccc1 (stereo partly specified)
3.3 | -30% | O=c1ccc2ccccc2[nH]1
-2.2 | ? | Cc1noc(C)c1-c1cc(NC2CC2)ncn1
? | 11% | CCCCCCCCCCCCCCCC(=O)NC(C)C
0.8 | 2% | C[C@H](NC(=O)[C@@H](N)Cc1ccc(O)cc1)C(=O)NCC(=O)N[C@H]1CSSC[C@@H](C(=O)O)NC(=O)[C@H](CO)NC(=O)[C@H]([C@@H](C)O)NC(=O)[C@H](Cc2ccccc2)NC(=O)[C@H]([C@@H](C)O)NC(=O)[C@H](CCCCN)NC(=O)[C@@H](Cc2c[nH]c3ccccc23)NC(=O)[C@H](Cc2ccccc2)NC(=O)[C@H](Cc2ccccc2)NC(=O)[C@H](CC(N)=O)NC(=O)[C@H](CCCCN)NC1=O
? | 4% | C[C@@H]1CC[C@H]2[C@H](C)[C@H]3CC[C@H]4C5[C@@H](O)CC6=CC(=O)CC[C@]6(C)[C@H]5C[C@H]4C3C(=O)N2C1 (stereo partly specified)
0.8 | -13% | CN(CC[C@@H](Oc1ccc(C(F)(F)F)cc1)c1ccccc1)CC(=O)O
? | -22% | COc1ccc(-c2nc3cnc(N4CCN(C)CC4)nc3n(-c3ccc(OC)cc3)c2=O)cc1
-1.7 | -5% | NCCO/C=C/[C@H](N)C(=O)O
-1.9 | -6% | CC(C)Oc1ccc2c(=O)cc(-c3ccccc3)oc2c1
-2.6 | 3% | CCC/C=C(\CCC)C(NC(=O)c1ccccc1)c1ccccc1 (stereo unspecified)
-2.5[11.7 µM] | -4% | CCOC(=O)[C@]1(C(NC(=O)OC)c2cccc(C)c2)CCCC1=O (stereo partly specified)
? | 11% | O=c1c(-c2ccc(Cl)cc2)nc2cnc(N3CCOCC3)nc2n1-c1ccccc1
-13&-0.9 | -11%&-15% | NC1(C(=O)O)CCCC1

An excerpt. The share of hits here may be higher or lower than overall.
